Mtb hypoxia inh: inhibitors of hypoxia-regulated fluorescent reporter in Mycobacterium tuberculosis; fluorescence inhibition, % (no concentration beside the values); hit rate 0.1% among 300,000; AID 1159583; M. tuberculosis hypoxia-regulated fluorescent reporter, fluorescence;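 active means 35 to 45% if threefold the growth effect, above 45% if 1.5-fold the growth effect; inactive means the rest, general growth blockers included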;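 further: wells of about 50 µL received 100 nL stock; 0% = vehicle wells and 100% = reference inhibitor wells; whole bacteria with a GFP reporter of the hypoxia response; strong numbers were not always called active; many hits fall short of the cut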
Bead autofluor: compound fluorescence in toxin protease inhibitor counterscreen | fluorescence intensity (concentration not given with the values) | hit rate 3.1% among 360,000 | compound autofluorescence counterscreen, microsphere flow cytometry; hits give high values;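 active means at least 3 SD above the mean of all compounds, about 16000 in these data; inconclusive means too few beads counted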;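 further: 100 nL of 1 mM stock went into each well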
PrP UTR inh: inhibition of PrP 5' UTR reporter expression; cell-based PrP 5' UTR mRNA reporter, plate reader; inhibition, % (concentration not given with the values); hit rate 0.35% among 340,000;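 active means every replicate at 50% or more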;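 further: 0 = median of the neutral control wells; tested in H4 reporter cells; numbers are from one replicate; inactives centre near -14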
ugtP null kill: growth inhibition of S. aureus ugtP deletion strain. S. aureus RN4220 ugtP deletion, OD600 growth, 16 h; some inactives read as strong as hits. growth inhibition, % (no concentration beside the values). hit rate 0.54% among 330,000;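 active means z-score under -3 and OD600 up to 0.15 on both plates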;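 further: plate controls were untreated wells for no effect and antibiotic for full effect; wells of about 80 µL received 100 nL stock; the first replicate is given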
RN4220 kill: S. aureus RN4220 growth inhibition; OD600, 16 h; inhibition, % (no concentration beside the values); hit rate 0.33% among 330,000; AID 1259311;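 active means z-score of -3 or lower and OD600 up to 0.18 on both plates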;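 further: plate controls were untreated cells for no effect and reference antibiotic for full effect; stock transfer was 100 nL into about 80 µL; one replicate is shown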
BJeLR lethal: BJeLR cell viability loss | BJeLR (HRASV12) viability, CellTiter-Glo ATP luminescence, 48 h; reference of the scale not given here | AID 1554 | inhibition, % (no concentration beside the values) | hit rate 0.17% among 300,000;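 active means replicate mean above 50%; inconclusive means above 50% but judged a plate artefact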;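 further: 50 nL library stock added to about 25 µL; numbers are from one replicate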
Mtb hypoxia inh growth: recorded beside Mtb hypoxia inh, whose call it bears; growth inhibition, %; measured here: M. tuberculosis growth (absorbance);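 0% = vehicle and 100% = reference antibiotic; read after six days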
Starred values were filed as active, the others as inactive; u = inconclusive; x = not tested or not shown; & = joins results of further samples.

Compound	Mtb hypoxia inh	Mtb hypoxia inh growth	Bead autofluor	PrP UTR inh	ugtP null kill	RN4220 kill	BJeLR lethal
O=C1CC(NS(=O)(=O)c2cccs2)CN1c1ccc(F)cc1 (stereo not given)	3	10	5794	-9	4	2.9	-2
COc1cccc(NC(=O)CC(c2ccc(OC(C)C)cc2)c2ccccc2OC)c1 (stereo not given)	1	-7	8928	-14	13	11	0
C=CCn1c(C)nnc1SCC(=O)Nc1oc(C)c2c(C)n[nH]c(=O)c12	8	-4	x	-5	1	5.9	-2
O=C(c1ccc2c(c1)N(Cc1ccccc1)CCS2)N1CCCCC1	x	x	6519	-16	7	-0.9	-2
Cc1cccc(N(CC(=O)Nc2c(C)n(C)n(-c3ccccc3)c2=O)S(C)(=O)=O)c1C	-1	-11	8758	6	1	-1.4	-5
Cc1ccc(CC(=O)N/N=C/c2ccc(OC(=O)c3ccc([N+](=O)[O-])cc3)cc2)cc1	x	x	2112	-6	x	x	-5
O=C(c1ccc(-n2cncn2)c([N+](=O)[O-])c1)N1CCN(c2cccc(Cl)c2)CC1	15	5	7004	-14	3	-1.6	11
CCOc1ccc2nc(N/C(N)=N/C(=S)Nc3ccc(OC)cc3)nc(C)c2c1	-2	19	4613	-12	14	-15	6
Cc1cccc(C(=O)NCC(C)NC(=O)c2cccc(C)c2)c1 (stereo not given)	5	-1	4368	-17	1	0.4	-8
CCNC(=O)NC(=O)C(C)OC(=O)C(C)(C)Oc1ccc(Cl)cc1 (stereo not given)	-7	-23	2363	-29	4	3.5	1
OCC1OC(n2cnc3c(Nc4ccccc4)ncnc32)C(O)C1O (stereo not given)	-5	-7	x	x	-5	4.4	x
COc1ccc(CCN(Cc2ccccn2)C(=S)Nc2ccccc2F)cc1OC	-15	2	4457	-19	-2	2.2	-23
CCOC(=O)c1sc(NC(=O)c2cccs2)cc1C	4	9	2891	-111	6	-14	26
CCOC(=O)C[C@H]1c2cc(F)ccc2S(=O)(=O)N1C1CCCC1	x	x	3981	-25	x	x	10
CCC(=O)Nc1cccc(-c2csc(-c3ccccc3)n2)c1	0	2	2062	-16	-13	-4.4	7
Cc1noc(COc2ccccc2OCc2onc(C)c2Cl)c1Cl	8	1	4161	-2	14	2.8	-2
Cc1cc(N2CCCC2)nc2ccc(NC(=S)NC(C)C)cc12	-2	-2	2176	-6	8	0.0	-8
O=C(NCC(c1cccs1)N1CCOCC1)c1ccc(Cl)s1 (stereo not given)	3	-2	10626	-23	7	3.1	22
CCN(CC)CCOC(=O)CCc1cccc2ccccc12	x	x	3956	-21	2	1.1	-9
O=C(Nc1ccc(N2CCN(C(=O)c3cccs3)CC2)cc1)c1cccnc1Cl	5	11	2354	-1	-3	2.8	-3
COc1cc(/C=C\C(=O)Nc2cc(=O)n(C)c(=O)n2C)cc(OC)c1OC	-2	4	4641	-5	-72	6.0	8
CC(C)c1ccc(OCc2ccc(C(=O)O)o2)cc1	11	5	4210	-23	10	3.1	-2
COc1ccccc1C(CNC(=O)c1cccc(NS(=O)(=O)c2ccc(Br)cc2)c1)N(C)C (stereo not given)	7	-2	4005	-12	19	4.1	-6
CCSCc1nnc(SCC(=O)Nc2ccc(OC)cc2)n1C	4	7	4042	-14	4	13	12
Cc1cc(C)cc(OCC(=O)NCCN2CCOCC2)c1	-4	-5	3068	-14	6	-1.3	9
CN(Cc1ccccc1)C1CCCN(C(=O)c2ccc(Cl)s2)C1 (stereo not given)	17	10	u	-14	4	-0.5	-5
COc1ccc(NC(=S)NCc2cccs2)cc1OC	0	-8	3883	-12	0	0.2	1
COc1cc(NC(=O)c2cccs2)c(OC)cc1NC(=O)CCC(=O)Nc1cccc2ncccc12	7	-2	3998	6	14	8.0	-1
Cc1cc(NC(=O)CSc2nc(C3CCCCC3)nc3ccccc23)no1	x	x	2404	-19	-9	3.4	-6
Cc1ccc(NC(=O)COC(=O)Cn2c(C)csc2=O)cc1	5	0	5696	-17	2	0.7	-2
O=C(CCc1ccc(Oc2cc([N+](=O)[O-])cc([N+](=O)[O-])c2)cc1)NC1CCCC1	11	3	2603	-23	-12	-0.7	7
Cc1cccc(-n2c(O)c(C=Nc3c(C)n(C)n(-c4ccccc4)c3=O)c3ccccc3c2=O)n1	2	3	3624&2773	-19&-4	1&-3	1.4&-1.3	6
CC(C)OC(=O)c1nn2c(C(F)(F)F)cc(-c3ccco3)nc2c1Cl	15	8	2868	-21	-4	-11	3
COc1cc2c(cc1OC)C(c1ccccc1)NCC2 (stereo not given)	4	-8	3843	-16	2	1.0	-3
CC1(C)C(c2ccccc2)=[N+]([O-])C2(CCCCC2=O)N1O (stereo not given)	x	x	3651	0	0	1.0	-5
CCCCNC(=S)NCc1ccc2c(c1)cc(C)n2C	1	2	3100	-37	-10	-13	-11
CC(=O)Oc1ccc(C(=O)Nc2cccc(-c3nnc(-c4ccco4)o3)c2)cc1	8	6	5475	-33	2	5.3	-11
O=C(Nc1ccccc1)c1cn(CCBr)cn1	10	3	3416	-36	5	2.6	3
C(=NNc1ncnc2ccccc12)c1ccccc1	14	2	x	x	11	8.5	x
Cc1cccc(N2C(=O)CSC2=NNC(=O)c2ccc(Br)cc2)c1C	-4	-9	x	x	5	0.9	x
COc1ccccc1C(=O)NNC(=O)C(=O)NCc1ccccc1	3	14	4572	-10	-3	0.9	10
CCCCOC(=O)n1ccc(C(=O)Nc2ccccc2OC)n1	17	8	7163	-2	12	4.6	-14
COc1ccccc1CNC(=O)C1CCN(C(=O)NC2CCCCC2)CC1	19	1	4739	-33	8	7.9	x
O=C(O)CCC(=O)NCCC1=c2ccccc2=N/C1=C\c1c(O)n(Cc2ccc(F)cc2)c(=S)[nH]c1=O	-5	-2	5486	3	-4	-4.8	-11
CCCC1(C(=O)O)NC(c2ccccc2O)C2C(=O)N(Cc3ccccc3)C(=O)C21 (stereo not given)	x	x	6044	-3	5	4.9	1
O=C(NCc1nnnn1-c1ccc(F)cc1)C1CC(=O)N(c2ccc(F)cc2)C1 (stereo not given)	3	0	x	-25	5	2.2	7
CCOC(=O)C1CC(c2ccc(Cl)cc2)=NNC1=O (stereo not given)	1	1	4571	-19	0	5.2	3
CCOc1ccc(CN2CCN(Cc3ccc4cc(F)ccc4n3)CC2CCO)cc1 (stereo not given)	-9	-8	3397	-8	-1	-4.2	-3
CNC(=O)C1CC(=O)N(CCc2ccc(OC)c(OC)c2)C(=Nc2ccc(F)cc2)S1 (stereo not given)	16	20	3405	2	1	-2.1	12
O=C(c1ccc(S(=O)(=O)N2CCCCCC2)cc1)N1CCN(Cc2ccccc2)CC1	7	10	3898	-6	5	4.0	x
COc1cccc(C(=O)COc2ccccc2-c2ccccc2)c1	6	17	9977	-100	44	6.8	10
CC(NCC(=O)Nc1cc(S(=O)(=O)N2CCCCCC2)ccc1Cl)c1ccccc1 (stereo not given)	1	9	4548	-34	2	5.7	8
O=c1c2[nH]c3ccc(F)cc3c2ncn1Cc1ccncc1	-9	6	3333	x	5	7.7	16
COc1ccc(/C=C2\SC(=O)N(CCCC(=O)Nc3ccc(C(=O)O)cc3)C2=O)cc1OC	-4	4	5737	-10	5	5.3	5
CC1(C)Cc2c(c(N3CCOCC3)nc3sc(C(N)=O)c(N)c23)CO1	19	3	5972	-11	1	28	-5
Cc1ccc(Oc2cc(NC(=O)CCCn3nc([N+](=O)[O-])c(Cl)c3C)cc([N+](=O)[O-])c2)cc1	2	5	4156	-27	-39	1.0	-1
COc1ccccc1Cn1c(C)nnc1-c1cnn(C)c1N	-2	-1	3850	5	5	11	9
CSc1ccc(C=NNc2nc(C)cc(=O)[nH]2)cc1	-3	7	x	x	2	6.8	x
CC(C)[C@@H]1COC(c2cccc(C3=N[C@H](C(C)C)CO3)n2)=N1	x	x	3730	-36	x	x	5
CCOc1ccc(N(C(=O)c2snc(C(N)=O)c2N)C(CC)C(=O)NC2CCCC2)cc1 (stereo not given)	x	x	4080	-33	x	x	-8

Whole records, quoted from the list. Values in the order: Mtb hypoxia inh	Mtb hypoxia inh growth	Bead autofluor	PrP UTR inh	ugtP null kill	RN4220 kill	BJeLR lethal
COc1ccccc1C(=O)NNC(=O)C(=O)NCc1ccccc1 across the screens: 3	14	4572	-10	-3	0.9	10
CCCCNC(=S)NCc1ccc2c(c1)cc(C)n2C across the screens: 1	2	3100	-37	-10	-13	-11
CC1(C)Cc2c(c(N3CCOCC3)nc3sc(C(N)=O)c(N)c23)CO1 across the screens: 19	3	5972	-11	1	28	-5

The listing continues:
Compound	Mtb hypoxia inh	Mtb hypoxia inh growth	Bead autofluor	PrP UTR inh	ugtP null kill	RN4220 kill	BJeLR lethal
COc1ccc(OCc2cc(C(=O)N3CCSCC3)no2)c(Cl)c1	5	6	u	-42	3	3.4	0
O=C(N/N=C/c1cccc(O)c1)c1ccc(NC(=O)c2cccc([N+](=O)[O-])c2)cc1	x	x	2035	2	x	x	-5
CCCN1CCN(C(=O)C(C)n2nc(C)c3sc4ccccc4c3c2=O)CC1 (stereo not given)	7	6	5431	-12	2	2.9	3
COc1cccc(-c2cc(C(=O)N3CCN(c4ccc(F)cc4)CC3)no2)c1	-4	-5	3909	1	-2	5.0	-9
COc1cccc(C(=O)c2cn(CC(=O)NCc3ccco3)c3nc(C)ccc3c2=O)c1	0	8	5055	-10	-12	-2.4	8
O=C(OCCN1C(=O)c2cccc3c(N4CCOCC4)ccc(c23)C1=O)c1cccc(Cl)c1	-2	-4	x	x	-4	2.6	-7
COc1ccc(F)cc1C(=O)C1CCCN(Cc2c(C)n(C)n(-c3ccccc3)c2=O)C1 (stereo not given)	6	7	2743	-25	7	3.4	7
Cc1cc(Br)c2[nH]cc(CCNC(=O)c3ccco3)c2c1	15	7	5466	-17	-9	4.6	-4
COc1ccc(C2(c3ccc(OC)cc3)NC(=O)N(CC(=O)Nc3ccc(C(=O)N(C)C)cc3)C2=O)cc1	-14	-2	4427	7	-5	-3.9	12
Cc1ccc(S(=O)(=O)C2(C(=O)N3CCCC(C)C3)CC2)cc1 (stereo not given)	4	9	11441	-26	6	1.7	-15
CN1C/C(=C/c2cccs2)C(=O)/C(=C\c2cccs2)C1	2	4	3565	-17	2	3.8	2
COC(=O)c1ccc(NC(=O)CCn2cccc2)cc1	6	6	2876	-9	-4	-15	9
O=C(CNC(=O)c1ccco1)OCc1ccc(C(=O)c2ccccc2)cc1	5	8	4143	0	-61	5.5	3
O=C(CCCn1c(=O)oc2ccccc21)N1CCc2ccccc2C1	x	x	2970	-33	13	4.7	1

Source: PubChem
